Ecoli rRNA inh – inhibits bacterial ribosomal RNA function over humanized ribosomes. E. coli WT GFP vs humanized-ribosome RFP mutants, fluorescence, 24 h; active compounds read low; DMSO median 0, no signal -100. GFP signal change (wild-type ribosome), % (concentration not given with the values). 350,000 tested, 1.6% active. AID 720706;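 active = significant combined selectivity score with lowered wild-type GFP, culture density cut under 30%, mutant RFP and density less affected; inactive = any of these conditions unmet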; also: one replicate is shown; some compounds called inactive have numbers as strong as hits
Calb FLC – affects C. albicans growth with fluconazole; growth inhibition, % (concentration not given with the values); 300,000 tested, 0.57% active; C. albicans CaCi-2 (fluconazole-resistant clinical isolate) + fluconazole, Alamar Blue growth, 48 h; AID 1979;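 active = most replicates above 75%; inconclusive = exactly half above 75%; inactive = most below 75%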;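 also: all wells also contain fluconazole at 8 µg/ml as a sub-toxic cotreatment; 0% = median of DMSO wells and 100% = median of geldanamycin control wells; wells of about 8 µL received 7.5 nL stock; the first replicate is given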
A1 inh – inhibitors of the anti-apoptotic protein A1, read as caspase activation | 330,000 tested, 0.066% active | MEF A1-2A-BIM cells, Caspase-Glo 3/7 luminescence, 3 h; percent of clofoctol response, vehicle zero | caspase activation, % (concentration not given with the values);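 active = over half of replicate activation scores above 10%, or exactly half above 10 with the replicate mean above 10; inconclusive = replicate mean below 10 yet half the replicates above 10; inactive = over half of replicates below 10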;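 also: wells of about 30 µL received 50 nL stock; many hits fall short of the cut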
T cruzi inh – T. cruzi replication inhibition | 300,000 tested, 1.4% active | T. cruzi beta-gal in NIH3T3, luminescence, 90 h | inhibition, % (concentration not given with the values);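 active = mean inhibition across valid replicates above about 55%, limit read from the data; inconclusive = mean below that limit but half or more replicates reach it; inactive = mean below it, under half of replicates reach it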;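 also: signal also drops with host cell toxicity which is not excluded here; 0% = plate median of DMSO wells and 100% = zero luminescence signal; higher percent means less beta-gal luminescence so fewer parasites; stock transfer was 50 nL into about 50 µL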
AF4-AF9 inh – blocks AF4 peptide binding to human AF9; AlphaScreen, biotin-AF4 peptide binding to FLAG-AF9; P42568; 350,000 tested, 0.47% active; inhibition, % at 10 µM;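 active = every replicate reaching a set inhibition limit, whatever the replicate mean, cut at about 25% in these data; inconclusive = mean inhibition reaches that limit but some replicates miss it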;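 also: 0% = plate neutral control median and 100% = total signal loss; the record names both 10 and 1 µM as test concentration; the first replicate is given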
Target sequence (P42568 whole entry, looked up): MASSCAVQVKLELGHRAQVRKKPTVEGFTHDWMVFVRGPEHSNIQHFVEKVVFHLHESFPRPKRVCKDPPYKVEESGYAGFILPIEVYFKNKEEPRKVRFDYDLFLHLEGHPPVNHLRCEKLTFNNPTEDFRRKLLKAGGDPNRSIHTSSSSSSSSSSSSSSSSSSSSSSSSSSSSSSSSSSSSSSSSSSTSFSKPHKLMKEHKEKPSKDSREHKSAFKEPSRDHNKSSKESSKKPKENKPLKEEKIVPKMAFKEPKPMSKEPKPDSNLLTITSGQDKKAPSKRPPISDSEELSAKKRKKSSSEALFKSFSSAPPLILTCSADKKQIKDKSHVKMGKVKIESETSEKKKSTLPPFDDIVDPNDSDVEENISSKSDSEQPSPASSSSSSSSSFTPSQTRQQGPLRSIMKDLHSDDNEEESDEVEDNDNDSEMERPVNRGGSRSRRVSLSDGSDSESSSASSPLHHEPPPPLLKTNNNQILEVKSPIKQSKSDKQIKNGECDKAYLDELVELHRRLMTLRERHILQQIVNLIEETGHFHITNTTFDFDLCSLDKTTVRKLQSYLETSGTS
Beta apoptosis – beta cell apoptosis inhibition; INS-1E cytokine-induced death, ATP luminescence, 48 h; percent of positive-control rescue, neutral wells zero; protection from apoptosis, % (test concentration not listed); 300,000 tested, 0.8% active; AID 435005;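 active = all replicates at 75% or more, or half of them and the mean; inconclusive = half reach 75% but not the mean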;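 also: 0% = cytokine-treated negative control wells and 100% = positive control rescue; higher means more ATP so stronger rescue from cytokine killing; wells of about 40 µL received 100 nL stock; the first replicate is given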
Vif A3G – HIV-1 Vif–A3G interaction blockers – biochemical, TR-FRET, GST-Vif 1-94, biotin-A3G peptide, dose response retest, primary screen (AID 1117319); TR-FRET GST-Vif / biotin-A3G peptide binding; higher % means a stronger effect; test concentration not given here; strong numbers were not always called active; one-dose inhibition, %; IC50 in µM for titrated hits; 260,000 tested, 0.57% active;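 active = above the screen mean plus three standard deviations and confirmed in dose response; inconclusive = results disagree or hit not tested in dose response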;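 also: Vif residues 1-94 fused to GST binding biotinylated APOBEC3G peptide 110-148; 0% = full assay without inhibitor and 100% = GST in place of GST-Vif; retest series ran down from 100 µM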
RanGTP-Impb inh – disruptors of Ran-importin-beta complex formation – biochemical, FRET, CFP-Ran, YFP-importin-beta, homogeneous, primary screen | cell-free CFP-Ran/YFP-importin-beta FRET ratio | 300,000 tested, 1.1% active | inhibition, % (test concentration not listed);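 active = most replicates above 15%; inconclusive = exactly half above 15%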;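 also: 0% = DMSO wells and 100% = Ran loaded with GDP instead of GTP; wells of about 40 µL received 100 nL stock; the first replicate is given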
Ecoli rRNA inh OD600 – second read-out of Ecoli rRNA inh, no call of its own (marks repeat the call); OD600 change, %; measured here: OD600 growth;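 optical density of the mix in the first replicate; 0 = DMSO median and -100 = no signal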
Ecoli rRNA inh RFP – also measured in Ecoli rRNA inh; calls as there; RFP signal change, %; measured here: RFP humanized mutant strains;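 first replicate; 0 = DMSO median and -100 = no signal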
The depositor's hits bear a star; ? = inconclusive; . = no result given; & = joins results of further samples. The list is partial. The share of hits here may be higher or lower than overall.

SMILES	Ecoli rRNA inh	Ecoli rRNA inh OD600	Ecoli rRNA inh RFP	Calb FLC	A1 inh	T cruzi inh	AF4-AF9 inh	Beta apoptosis	Vif A3G	RanGTP-Impb inh
N#C/C(=C(/O)C(Cl)c1ccccc1)c1nc2ccccc2s1 (centres undefined)	.	.	.	8	-0.1	11	.	2	-54%	-0.6
COc1ccc(N2CCN(C(=O)CCC(=O)N3CC(C)Oc4ccc(C)cc43)CC2)cc1 (centres undefined)	-6	-29	-6.5	-9	-0.4	2	8.0	1	.	-0.6
Cc1nnc(SCC(=O)Nc2ccc(N(C)C)cc2)n(N)c1=O	4	7	1.1	5	0.3	-6	-1.3	-8	12%	-1.8
Cc1nc(NC(=O)CC(C)C)sc1-c1csc(Nc2ccc(Cl)cc2Cl)n1	0	-7	3.3	0	-0.3	52	-2.1	8	0%	-0.3
CCC(C)NC(=O)Cn1c(=O)n(CCCC(=O)NCc2ccccc2Cl)c(=O)c2ccccc21 (centres undefined)	.	.	.	-8	-0.5	-4	.	-3	1%	1.5
O=C(O)c1ccc(-c2noc(-c3ccccc3C(F)(F)F)n2)cc1	-17	-25	-9.1	0	-7.5	1	-0.1	-6	.	4.1
COc1cc(/C=C/C(=O)OCC(=O)Nc2nnc(-c3ccccc3)o2)cc(OC)c1OC	7	10	-4.3	-1	0.7	-11	-30	0	1%	2.0
O=C(c1c[nH]c2ccc(S(=O)(=O)N3CCOCC3)cc2c1=O)N1CCCC1	.	.	.	0	1.0	-10	.	-1	4%	7.5
Cc1ccc(N(C(=O)c2csnn2)C(C(=O)NCc2ccccc2)c2ccccn2)cc1 (centres undefined)	-2	5	0.5	0	0.1	7	1.1	1	.	4.8
O=c1c2ccccc2cnn1CCOc1ccccc1	.	.	.	-18	-8.0	-7	.	6	.	-2.1
CCCn1c(C(C)C)n[nH]c1=S	7	7	0.7	6	0.0	-11	-8.0	-5	-9%	0.8
CCSc1nnc(C)c2ccccc12	.	.	.	0	0.0	-4	.	-4	-17%	3.2
CCCN1Cc2cccc(C(=O)Nc3ccc4c(c3)OCO4)c2C1=O	.	.	.	-2	-0.3	10	.	-4	31%	-0.7
O=C(COC(=O)c1ccc(S(=O)(=O)Nc2ccccc2)cc1)NC1CCCC1	-15	-16	3.6	-15	2.5	-10	-0.5	1	?	?
CCOC(=O)c1cnc2c(C)c(Cl)ccc2c1N1CCOCC1	3	3	0.4	5	0.9	1	-9.1	.	-4%	1.6
O=C(CCn1nnc2ccccc21)OCC(=O)c1ccc([N+](=O)[O-])cc1	4	13	-1.1	11	0.2	-8	1.4	-9	.	2.9
COc1cccc(C(C2=C(O)CC(C)(C)CC2=O)C2C(=O)CC(C)(C)CC2=O)c1 (centres undefined)	-4	-4	-8.8	-4	-0.3	-16	?	-4	.	-1.3
Cc1nc2ccccc2c(=O)n1NC(=O)c1ccccc1F	9	8	-0.8	17	0.1	-11	2.3	-2	0%	-1.6
CCOC(=O)C(C)(C)Oc1cccc2c1S(=O)(=O)c1ccccc1-2	-25	-26	-1.9	-3	0.4	0	-4.9	.	.	1.5
Nc1ncc2c(n1)CCN(c1ccc([N+](=O)[O-])cc1)C2	-13	-21	1.7	.	0.1	8	-1.1	5	-1%	11
CCN(CC)C(=O)COC(=O)C1CCN(S(=O)(=O)c2ccc3c(c2)OCCO3)CC1	.	.	.	.	-0.2	.	0.5	-6	?	.
Nc1c(C(=O)Nc2ccccc2F)sc2nc(Cc3ccccc3)cc(C(F)(F)F)c12	80	15	3.1	3	0.0	-10	-0.5	-2	-19%	-35
N#Cc1cc([N+](=O)[O-])ccc1NCCN1CCOCC1	11	13	-3.5	6	-0.3	-9	-5.6	0	-2%	1.3
COc1ccc(-c2cc(C(=O)N3CCCCCC3)no2)cc1	0	-10	4.3	2	0.2	14	-6.3	2	?	2.0
O=C(CSc1nc2ccccc2c(=O)[nH]1)NCc1ccc(Cl)cc1	.	.	.	?	-0.6	-16	.	-2	-4%	1.1
Cc1ccccc1N(Cc1cc(=O)[nH]c2ccccc12)C(=O)C(C)C	12	8	-2.0	-6	0.3	12	-3.0	-5	.	5.2
Cc1c(Cl)cccc1NC(=O)CCN1CCCCC1	.	.	.	24	-0.7	-5	.	-6	6%	-0.2
O=c1c2ccccc2cnn1Cc1n[nH]c(=S)n1-c1ccccc1	21	8	2.7	16	0.0	-9	6.7	2	6%	3.2
CS(=O)(=O)N(CC(=O)Nc1ccc(S(=O)(=O)N2CCOCC2)cc1)c1ccccc1Cl	9	-4	1.1	-22	0.4	11	-0.4	-3	?	?
Cc1noc(C)c1CSc1nc2ccccc2n1CCc1ccccc1	.	.	.	-1	-0.5	29	.	5	22%	-3.1
O=C(CN(C(=O)CCC(=O)Nc1ccccn1)c1ccc(F)cc1)NCc1ccc(F)cc1	5	13	-2.4	7	0.5	2	-1.3	-5	.	3.1
COc1ccc(NC(=S)N2CCN(c3ccccn3)CC2)cc1	-15	-16	-3.6	2	-0.6	-1	3.3	-4	.	1.9
N#C/C(=C\c1ccc(-c2ccccc2[N+](=O)[O-])o1)C(=O)Nc1nc(-c2cccs2)cs1	.	.	.	-1	3.0	-22	.	1	1%	1.2
O=C(COC(=O)c1cc([N+](=O)[O-])ccc1N1CCOCC1)Nc1ccc(Cl)cc1	-34*	-18*	12*	3	-0.7	-3	11	.	0%	-0.9
CCn1c(SCc2ccc(F)cc2)nnc1C1CCN(S(=O)(=O)c2ccc(OC)cc2)CC1	.	.	.	?	-0.2	19	.	-5	6%	3.0
CC(C)(C)c1cc(N)n(-c2ccc(C(=O)O)cc2)n1	18	6	0.6	8	0.7	-4	-0.4	-9	.	-2.5
CC(C)(C)NC(=O)C(=O)NNC(=O)COc1ccccc1	33	17	2.2	3	-0.2	-13	3.5	0	-2%	2.3
Cc1ccc(CNc2nc(C)cs2)cc1	4	21	5.9	-15	0.0	9	1.6	-8	.	9.3
Cc1ccc(N(CC(=O)NCc2ccc(Cl)cc2)S(C)(=O)=O)cc1	4	7	-1.6	-9	0.6	-1	-1.1	.	.	-1.7
COC(=O)c1cn(C(=O)c2ccccc2F)nc1N	15	13	-11	5	-0.3	-10	-2.5	2	2%	2.4
COc1ccc(CN(C(=O)c2nsc(Cl)c2Cl)C(C(=O)NC2CCCC2)c2ccc(OC)cc2)cc1 (centres undefined)	1	3	-4.1	?	-0.4	21	0.5	5	.	2.3
CCOCCCNC(=O)CCn1ccc2cc(S(=O)(=O)N3CCCC3)ccc21	2	9	0.2	7	0.0	-8	-0.7	-2	.	0.6
CCNc1nc(NC(C)CC)nc(Oc2ccc(OCC)nn2)n1 (centres undefined)	9	0	-1.9	9	0.4	-11	-3.2	3	-4%	-5.0
O=C(CSc1nnc(Nc2ccccc2F)s1)c1cc2ccccc2o1	.	.	.	-5	-0.4	2	.	-2	-2%	?
Cc1cc(Cl)cc(Cl)c1OCCOc1cccc2cccnc12	.	.	.	-3	0.3	19	.	.	0%	?
COc1cccc(-n2c(SCC(=O)O)nnc2-c2cccnc2)c1	0	7	-4.4	16	0.4	-5	9.5	-1	27%	-2.7
CCN(CC)C(=O)c1oc2ccc(S(=O)(=O)N3CCCCCC3)cc2c1C	-9	-5	2.1	-5	-0.2	16	-12	8	7%	-3.9
CC(=O)c1sc(Nc2cccc(C)c2)nc1C	11	8	1.8	30	-2.0	12	-2.2	0	.	4.1
Cc1cc(S(=O)(=O)NCCCN2CCOCC2)ccc1F	.	.	.	-7	0.1	-14	.	2	31%	6.8
Cc1nc2ccccn2c1C(=O)NN	.	.	.	-6	0.2	-17	.	0	19%	1.2
COc1ccc(C2=NOC(C(=O)NCC(C)C)C2)cc1 (centres undefined)	.	.	.	2	0.5	-2	.	-5	32%	0.5
CC1CCN(Cc2c(C(=O)N/N=C/c3cc(Br)ccc3O)nnn2-c2nonc2N)CC1	5	16	-0.4	82*	0.0	59*	0.8	90*	.	3.4
O=C(CN1C(=O)c2ccccc2C1=O)N1CCN(C(=O)c2ccco2)CC1	.	.	.	-7	0.7	-29	.	-2	3%	-0.5
O=C(C1CCN(S(=O)(=O)c2cccnc2)CC1)N1CCN(C2CCCC2)CC1	.	.	.	-4	0.0	10	.	-3	12%	-1.8
CC(=O)c1cccc(NC(=O)c2ccc3c(Cl)c4c(nc3c2)CCCC4)c1	3	5	0.7	6	0.2	-43	1.9	4	12%	6.4
COC(=O)c1c(NC(=O)CN2CCN(S(=O)(=O)c3ccccc3)CC2)sc2c1CCC(C)C2 (centres undefined)	.	.	.	6	0.6	-7	.	3	.	3.2
COc1cccc(-c2cc(C(=O)Nc3cccc(O)c3)no2)c1	.	.	.	-4	-13	-2	.	3	29%	-4.5
CC(Sc1nnc(Cc2cccs2)n1C1CCCCC1)C(N)=O (centres undefined)	.	.	.	-14	0.9	-4	.	-2	-2%	-2.1
CCOc1cc(S(=O)(=O)NCc2ccccc2)ccc1F	.	.	.	33	-0.4	-12	.	-8	2%	3.8
O=C(CN(Cc1ccc(Br)cc1)S(=O)(=O)c1ccccc1)NCc1ccncc1	.	.	.	9	0.8	-3	-0.2	8	.	4.9

New compounds follow.
SMILES	Ecoli rRNA inh	Ecoli rRNA inh OD600	Ecoli rRNA inh RFP	Calb FLC	A1 inh	T cruzi inh	AF4-AF9 inh	Beta apoptosis	Vif A3G	RanGTP-Impb inh
Cc1cc2nc(NCCCO)n(CC(=O)c3cc(C(C)(C)C)c(O)c(C(C)(C)C)c3)c2cc1C	7	12	-6.2	.	-0.3	.	5.0	98*	.	.
COc1ccc(-n2c(=S)[nH]c3cc(C(=O)Nc4ccccc4OC)ccc3c2=O)cc1	.	.	.	-5	0.2	-19	.	77*	-6%	0.9
COc1ccc(CCNC(=O)COC(=O)c2cnccn2)cc1	.	.	.	-8	0.2	-4	.	-4	-4%	0.2
COc1ccc(C2OC(=O)C(C)(C)C(=O)C2(C)C)cc1OC (centres undefined)	9	0	0.9	22	2.5	-14	-2.8	-8	-2%	5.4
CC1(C)CC(=O)N(c2ccccc2)C1(C)O (centres undefined)	.	.	.	11	1.0	-12	.	-4	10%	4.9
COC(=O)[C@@H]1C[C@@H]2CC[C@@H](O)C[C@@H]2N1Cc1ccc(OC)cc1	11	11	2.2	-6	-0.1	-6	-2.3	-1	16%	?
C=CCn1c(SCC(=O)C(C)(C)C)nnc1-c1cccs1	.	.	.	6	0.2	6	.	0	3%	3.9
CCCc1ccc(OCC(O)CN2CCN(c3ccccc3)CC2)cc1 (centres undefined)	-9	-31	0.9	-16	0.0	-7	3.0	1	-8%&15%	2.6
